2A Renilla: FMDV 2A StopGo reporter, Renilla signal | HEK cells with a luciferase reporter of 2A StopGo recoding | Potency, µM (titrated, usually from 57.5 µM), inactives show at the top dose signal change, negative = less light | 120,000 compounds, 0.32% hits | AID 1745857; active means well fitted falling curve with a large enough effect; inconclusive means small, poorly fitted or top-dose-only effect; inactive means no such curve, though single readings can be large or run the other way; further: nearly all actives have a fitted effect of over 55% in size; overnight with compound
2A firefly: lowers the firefly signal of an FMDV 2A StopGo reporter | AID 1745856 | Potency, µM (highest dose often 57.5 µM), for the others: top-dose signal change, negative = less light | HEK cells with a luciferase reporter of 2A StopGo recoding | 120,000 compounds, 0.23% hits; active = well fitted falling curve with a large enough effect; inconclusive = small, poorly fitted or top-dose-only effect; inactive = no such curve, though single readings can be large or run the other way; further: nearly all actives have a fitted effect of over 60% in size; overnight with compound
An asterisk follows results filed as active; ? = inconclusive; [ ] = remark or other dose. On the % scale 0 is the no-effect control and ±100 the full control effect; potency means the concentration at half of the fitted maximal effect. No enrichment for hits; about 0.55% have a hit in one of these screens.

Start of the data: the first three entries as a preview:
| SMILES | 2A Renilla | 2A firefly |
| --- | --- | --- |
| Cc1ccccc1NC(=O)CSc1nc(N2CCCC2)c2c(c1C#N)CCCC2 | -1.0% | -6.0% |
| COc1ccc(C2CC(=O)Nc3c2c(C)nn3-c2ccc(C)cc2)cc1OC (stereo not given) | -7.6% | -6.0% |
| CCCS(=O)(=O)N1CCCN(c2ccc(=O)n(-c3ccc(C)c(C)c3)n2)CC1 | -2.2% | 6.9% |

Main list (from the top)
| SMILES | 2A Renilla | 2A firefly |
| --- | --- | --- |
| Cc1ccccc1NC(=O)CSc1nc(N2CCCC2)c2c(c1C#N)CCCC2 | -1.0% | -6.0% |
| COc1ccc(C2CC(=O)Nc3c2c(C)nn3-c2ccc(C)cc2)cc1OC (stereo not given) | -7.6% | -6.0% |
| CCCS(=O)(=O)N1CCCN(c2ccc(=O)n(-c3ccc(C)c(C)c3)n2)CC1 | -2.2% | 6.9% |
| COc1ccc(OCCN(C)c2nc(-c3cccnc3)nc3ccccc23)cc1 | -6.6% | -12.1% |
| COc1cccc(N2C(=O)C(CC(=O)Nc3ccc(Cl)cc3)N(Cc3ccc4c(c3)OCO4)C2=O)c1 (stereo not given) | 0.0% | -18.3% |
| Cc1ccc2[nH]c(CSc3nnc(NC(=O)COc4ccccc4F)s3)cc(=O)c2c1 | -16.1% | -8.2% |
| COc1ccc(N2CCN(CC(O)COc3ccc(C)c(C)c3)CC2)cc1 (stereo not given) | 4.8% | 0.0% |
| COCCn1c(-n2nc(C)c(C)c2C)nc2c1c(=O)n(CC(=O)C(C)(C)C)c(=O)n2C | ? | ? |
| Cc1ccc(C(C)C)c(OCC(=O)Nc2ccc(N3CCN(C(=O)c4ccco4)CC3)cc2)c1 | -29.7% | ? |
| COc1ccc(C2CCCCCN2C(=O)Cn2cnc3ccc(F)cc3c2=O)cc1 (stereo not given) | 5.3% | -8.2% |
| CCc1ccc(-n2c3nc(=O)[nH]c(=O)c-3cc3c(C)nn(-c4ccccc4)c32)cc1 | -9.1% | -16.8% |
| CCOc1ccc(N2C(=O)c3[nH]nc(-c4ccc(OC)cc4)c3C2c2cccs2)cc1 (stereo not given) | ? | ? |
| COC(=O)c1cc2oc(C)cc2n1Cc1ccc(Cl)cc1 | 15.6% | 17.3% |
| Cc1ccc(C)c(NC(=O)Cn2cnc3c(oc4ccccc43)c2=O)c1 | 2.0% | -3.6% |
| COC(=O)C1CCN(S(=O)(=O)NCc2ccnc(Oc3ccc(OC)cc3)c2)CC1 | -2.7% | 11.4% |
| CN(Cc1ccc2ccccc2c1)C(=O)c1cc2ccccc2oc1=O | 223.0%[activator] | 9.7% |
| Fc1cccc(CSc2nnc(-c3ccccc3F)n2C2CC2)c1 | 24.8% | 0.0% |
| CC1CCC(NC(=O)C2CC=CCC2)CC1 (stereo not given) | 1.9% | 130.9%[activator] |
| CCCCC(=O)NC1C2CC3CC(C2)CC1C3 (stereo not given) | 19.6% | 16.1% |
| COc1ccc(OC)c(/C=C2\Oc3cc(OC(=O)C(C)(C)C)ccc3C2=O)c1 | 15.6% | 15.5% |
| Cn1c(=O)oc2cc(S(=O)(=O)CCC(=O)NCc3ccccc3)ccc21 | -10.8% | -14.8% |
| COc1ccc(-c2cccc(NS(=O)(=O)c3cc(C)c(OC)c(C)c3C)c2)nn1 | 42.0%[activator] | ? |
| COc1ccc(Cl)cc1-n1c(=O)c(C#N)cc2c(=O)n3cccc(C)c3nc21 | 11.9% | 18.4% |
| COc1ccc(NC(=O)Nc2nnc(N(C)C3CCCCC3)s2)c(OC)c1 | 3.1% | 6.8% |
| Cc1ccc(C)c(Cn2c(CN(C)Cc3ccccc3)nc3c2c(=O)n(C)c(=O)n3C)c1 | 2.4% | -8.8% |
| CC(C)NC(=O)c1nc(-c2ccc3[nH]ccc3c2)no1 | 15.5% | 102.9%[activator] |
| CC(C)(C)c1cc(N/C=C/C(=O)C(F)(F)F)cc(C(C)(C)C)c1 | 2.6% | -1.9% |
| CC(=O)c1cccc(NC(=O)c2cc3nc(-c4ccc(Br)cc4)cc(C(F)(F)F)n3n2)c1 | -12.4% | -17.7% |
| Cc1cc2oc3c(c(=O)c2cc1C)C1(C(=O)N(C)c2ccccc21)N(CCO)C3=O (stereo not given) | -8.2% | -12.6% |
| Cc1ccc(C)c(NC(=O)CCCN2C(=O)COc3ccc(C)cc32)c1 | 7.0% | 0.0% |
| O=C(OCc1nnc(-c2ccccc2)o1)c1ccc2c(c1)OCO2 | -0.3% | 18.8% |
| Nc1nc(Nc2cc(Cl)cc(Cl)c2)nc(-c2cc3ccccc3o2)n1 | 5.6% | 11.0% |
| Cc1ccc(C(=O)c2cn(CC(=O)Nc3ccc(C(C)C)cc3)c3nc(C)ccc3c2=O)cc1 | -3.8% | -9.3% |
| CCNc1nc2c(c(=O)n(C)c(=O)n2C)n1CC(O)COc1ccccc1 (stereo not given) | -11.4% | -1.3% |
| COc1ccc2cnn(CC(=O)N(Cc3ccccc3)Cc3ccccc3)c(=O)c2c1OC | 105.6%[activator] | 32.5%[activator] |
| CC(NC(=O)CCc1ccccc1)C1CC2CCC1C2 (stereo not given) | 9.7% | 11.2% |
| O=C(COCc1cc(-c2ccc(F)cc2)on1)Nc1ccc2c(c1)OCCO2 | 1.8% | 20.7% |
| CCOc1ccccc1NC(=O)Nc1nnc(N(C)Cc2ccccc2)s1 | -18.8% | -23.8% |
| O=C(CSc1nc(=O)n(Cc2ccco2)c2c1CCC2)NCc1ccccc1Cl | 144.8%[activator] | -13.1% |
| N#Cc1cc2c(nc1N1CCN(C(C(=O)O)c3c[nH]c4cc(CO)ccc34)CC1)CCCC2 (stereo not given) | -8.9% | -7.7% |

Next section; the last three above are carried over.
| SMILES | 2A Renilla | 2A firefly |
| --- | --- | --- |
| CCOc1ccccc1NC(=O)Nc1nnc(N(C)Cc2ccccc2)s1 | -18.8% | -23.8% |
| O=C(CSc1nc(=O)n(Cc2ccco2)c2c1CCC2)NCc1ccccc1Cl | 144.8%[activator] | -13.1% |
| N#Cc1cc2c(nc1N1CCN(C(C(=O)O)c3c[nH]c4cc(CO)ccc34)CC1)CCCC2 (stereo not given) | -8.9% | -7.7% |
| CC(C)c1cnc2c(c1SCC(=O)NC(C)(C)C)c(=O)n(C)c(=O)n2C | -8.2% | -13.9% |
| c1ccc2[nH]c(-c3nn4c(C5CCCCC5)nnc4s3)cc2c1 | -4.1% | 85.4%[activator] |
| CN(C)CCC#CC(O)(c1ccccc1)C1CCCCC1 (stereo not given) | 3.2% | 2.9% |
| O=C(CSc1nc2ccccc2n1Cc1cccc(F)c1)N1CCN(c2ccc(F)cc2)CC1 | -3.1% | 8.5% |
| O=C(CSc1nc2cc3c(cc2c(=O)n1Cc1ccco1)OCO3)Nc1ccc(F)cc1 | 32.5%[activator] | 23.2% |
| O/N=C/c1cn(Cc2ccc(F)cc2)c2ccccc12 | ? | -11.2% |
| CN(C)S(=O)(=O)c1ccc2c(c1)CCN2Cc1cc(C#N)ccc1F | -28.8% | ? |
| Cc1oc2ccc(OCc3c(Cl)cccc3Cl)cc2c1C(=O)O | 8.3% | 5.1% |
| Cc1ccc(-c2nc3c4ccccc4n(CC(=O)NCc4ccc(F)cc4)c(=O)n3n2)cc1 | -11.9% | -17.0% |
| Cc1ccc(CNC(=O)c2ccc(S(=O)(=O)N3CCCC3)cc2)cc1 | 1.4% | -2.9% |
| CCCCCCc1ccc(C(=O)Oc2ccc(Cl)cc2)cc1 | -7.1% | -6.5% |
| Cc1ccc(NC(=O)CN2CCN(C3CCCCC3)C(=O)C2=O)cc1 | -5.1% | -7.1% |
| CCCCCCNC(=O)CC#N | 6.5% | 4.5% |
| N#Cc1ccc(-c2cccs2)nc1SCC(=O)Nc1cccc(C(F)(F)F)c1 | 19.8% | 19.4% |
| Cc1nc2nc(-c3ccc(Cl)cc3Cl)nn2c(C)c1CCC(=O)Nc1ccc(F)cc1 | -3.2% | ? |
| Cc1ccc2nc(CN3CCN(S(=O)(=O)c4ccc(F)cc4)CC3)oc2c1 | -21.8% | -17.9% |
| COc1ccc(CNC(=O)COCc2cc(-c3ccc4c(c3)OCO4)on2)cc1 | -13.1% | -6.5% |
| CCC(C)Nc1ccc2c(cc1=O)[C@@H](NC(C)=O)CCc1cc(OC)c(OC)c(OC)c1-2 (stereo not given in full) | 41.3%[activator] | 25.3% |
| COc1ccc(OC)c(CCNC(=O)c2nc(-c3ccc(Cl)cc3)n3c2CCCCC3)c1 | -4.5% | -14.9% |
| CC(c1cccc2ccccc12)N(C(=O)c1cccs1)C1CC1 (stereo not given) | 94.8%[activator] | 23.4% |

A run of entries of the results above:
| SMILES | 2A Renilla | 2A firefly |
| --- | --- | --- |
| COc1ccc(OC)c(CCNC(=O)c2nc(-c3ccc(Cl)cc3)n3c2CCCCC3)c1 | -4.5% | -14.9% |
| CC(c1cccc2ccccc12)N(C(=O)c1cccs1)C1CC1 (stereo not given) | 94.8%[activator] | 23.4% |

Later entries
| SMILES | 2A Renilla | 2A firefly |
| --- | --- | --- |
| Cc1cc(C)nc(NC(c2ccc(C(C)C)cc2)c2cc(C)sc2NC(=O)c2ccco2)n1 (stereo not given) | -8.3% | 17.6% |
| O=[N+]([O-])c1ccc(Oc2cccc3cccnc23)c2ccncc12 | -14.4% | 32.1% |
| CC(=O)Nc1cc(NC(C)=O)cc(-c2nc3ccccc3o2)c1 | 95.0%[activator] | 12.0% |
| Cc1ccc(NC(=O)c2c(C)oc3nc(C)nc(N4CCCC4)c23)c(C)c1 | -0.5% | -23.0% |
| CC(CCc1ccccc1)NC(=O)c1nc(Cc2c[nH]c3ccccc23)no1 (stereo not given) | 9.4% | -17.8% |
| COC(=O)c1sccc1S(=O)(=O)Nc1ccccc1OC(F)F | 87.6%[activator] | 9.6% |
| CCc1ccc(NC(=O)CSc2nc3c(c(=O)[nH]2)CN(Cc2ccc(Cl)cc2)CC3)cc1 | -25.8% | -6.8% |
| Cc1ccc(/C(=C\CN2CCCC2)c2ccccn2)cc1 | -4.7% | -1.6%[11.5 µM] |
| COc1ccc(CCNC(=O)CCc2c(C)nc3c4c(C)cc(C)nc4nn3c2C)cc1OC | -15.6% | -15.0% |
| Cc1cc(C)c(NC(=O)C2CCCC2)c(C)c1 | 11.4% | 15.2% |
| Cc1ccc(NC(=O)c2cc(=O)c3ccc(C)c(C)c3o2)cc1Cl | -4.5% | -8.1% |
| CC1=C(C#N)C(O)(C(F)(F)F)C(=O)N1 (stereo not given) | 40.8%[activator] | 15.2% |
| COc1ccc(C)cc1Nc1nc(N)c(C(=O)c2cccc(Br)c2)s1 | -0.4% | 10.7% |
| CN(CCOc1ccccc1F)C(=O)c1cn(C)c2ccccc12 | 44.6%[activator] | 45.2%[activator] |
| Cc1nc2nc(NCc3cccc(Cl)c3)[nH]n2c(=O)c1Cc1ccccc1 | -8.4% | -16.1% |
| CCC(CO)NS(=O)(=O)c1ccc(Cl)c2ccccc12 (stereo not given) | -3.3%[1.06 µM] | 8.3% |
| Cc1cc(C)c(NS(=O)(=O)c2c(C)cc(N3C(=O)CCS3(=O)=O)cc2C)c(Cl)c1 | 8.4% | 11.4% |
| Cc1ccc(S(=O)(=O)CC(=O)c2cccc(-c3ccc(I)cc3)c2)cc1 | 33.8%[activator] | 48.8%[activator] |
| O=C(Nc1nc2ccccc2n1CCOc1ccccc1Cl)c1ccccc1 | 6.2% | 115.0%[activator] |
| Nc1nn(Cc2ccccc2F)cc1Br | -13.1% | 2.5% |
| NC(=O)Cc1csc(NC(=O)CCc2ncc(-c3ccc(F)cc3)o2)n1 | -11.9% | 62.8%[activator] |
| CCN(CC)S(=O)(=O)NCc1ccnc(Oc2ccc(OC)cc2)c1 | 3.9% | 18.3% |
| O=S(=O)(c1ccccc1)N1CCN(Cc2cccc3cccnc23)CC1 | -11.4% | -4.6% |
| CC(C)C(Br)C(=O)Nc1cc(Cl)ccc1Cl (stereo not given) | -10.7%[1.06 µM] | 2.2% |
| CC1CCCCN1Cc1cc(=O)oc2cc(-c3ccccc3)c(O)cc12 (stereo not given) | -0.4% | 0.0% |
| O=C(NCCC1=CCCCC1)c1ccc2c(c1)N(Cc1ccc(Cl)cc1)C(=O)c1ccccc1S2(=O)=O | 28.5% | 59.5%[activator] |
| Cc1ccc(C)c(NC(=O)CN(C)C(=O)COc2cccc(F)c2)c1 | -6.8% | 0.9% |
| Cc1ccccc1CNC(=O)c1nn(-c2ccccc2Cl)nc1CO | 35.7%[activator] | -7.8% |
| CN(C(=O)c1ccc(F)cc1)C1CCCCC1 | 13.8% | 142.6%[activator] |
| CCn1nc(C(=O)N(C)CCOc2cccc(C)c2)c2ccccc2c1=O | -3.2% | -2.6% |
| CC1(C)C(=O)Nc2ccccc2N1C(=O)COC(=O)c1cccs1 | -3.8% | -7.0% |
| N#Cc1nc(-c2ccc(Cl)cc2)oc1N1CCOCC1 | 12.1% | 10.3% |
| O=[N+]([O-])c1ccc(/C=C/c2ccccc2)cc1 | 8.0% | 31.3% |
| O=C(O)C1Oc2ccccc2O1 | 13.6% | -0.6% |
| COc1cc(C(=O)OC2CCCCC2=O)ccc1OCc1ccc(Cl)cc1 (stereo not given) | ? | 51.1%[activator] |
| CC(Sc1cc(C(N)=O)c2ccccc2n1)c1nc(C(C)(C)C)no1 (stereo not given) | 17.2% | 3.0% |
| CCN(CC)C(=O)c1cccc(NC(=O)c2cnc3ccccc3n2)c1 | -16.3% | 55.5%[activator] |
| COCC(C)NC(=O)c1cc2c(=O)n3cccc(C)c3nc2s1 (stereo not given) | 17.6% | 44.5%[activator] |
| COc1ccc2[nH]c(C)c(C(=O)CN3CCC(C)CC3)c2c1 | -6.5% | -6.2% |
| CCc1cccc(C)c1NC(=O)Cn1ccn(-c2ccc(OC)cc2)c(=O)c1=O | -10.8% | -11.7% |
